Assay outcomes (PubChem BioAssay)
CSC inhib: cancer stem cell viability inhibitors, primary screen, luminescence; cancer stem cell-like cells viability; inhibition, % at 7.5 µM; 300,000 tested, 1.1% active; AID 2717, 2010;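 active = mean at 75% or more and at least half the replicates too; tested in HMLE shEcad cells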;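 note: 0% = median of negative and 100% = median of positive control wells; the first replicate is given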
eIF4H inh: human eIF4H binding inhibitors, primary screen, translation initiation inhibitor project, biochemical, uHTS, fluorescence polarization; Eukaryotic translation initiation factor 4H (Homo sapiens), Q15056; eIF4H fluorescence polarization binding assay; inhibition, % at 35 µM; 290,000 tested, 0.94% active; AID 2012, 2009;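 active = 50% or more with normal probe brightness, or confirmed in later tests; about a fifth of its hits are not listed in these tables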;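 note: calls also rest on retests at 20 µM and on dose response follow-up; 0% = protein and probe with vehicle and 100% = probe without protein; strong numbers were not always called active; many hits fall short of the cut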
Env fusion inh: inhibitors of HIV-1 Env-driven cell-cell fusion, primary screen, HeLa-JRFL effector, CEM21 target cells, luciferase. inhibition, % at 12.3 µM. 360,000 tested, 1.1% active. AID 651610, 2012;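 active = mean replicate inhibition score of at least 50 and every replicate individually at or above 50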;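 note: 0% = plate neutral controls and 100% = maraviroc near 300 nM; one replicate is shown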
Rce1 inh: yeast Rce1p protease inhibitors, primary screen, biochemical, fluorescence, cell-free homogeneous | yeast membranes, quenched prenylated peptide cleavage fluorescence | 290,000 tested, 0.27% active | calls only | AID 2563, 2010;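 active = fall in fluorescence gain of 50% or more versus controls, with final raw signal at or below 3038400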;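 note: plate controls were neutral control wells for no effect and wells lacking membranes for full effect; tested at 10 µM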
Target sequence (Q03530 whole entry, looked up): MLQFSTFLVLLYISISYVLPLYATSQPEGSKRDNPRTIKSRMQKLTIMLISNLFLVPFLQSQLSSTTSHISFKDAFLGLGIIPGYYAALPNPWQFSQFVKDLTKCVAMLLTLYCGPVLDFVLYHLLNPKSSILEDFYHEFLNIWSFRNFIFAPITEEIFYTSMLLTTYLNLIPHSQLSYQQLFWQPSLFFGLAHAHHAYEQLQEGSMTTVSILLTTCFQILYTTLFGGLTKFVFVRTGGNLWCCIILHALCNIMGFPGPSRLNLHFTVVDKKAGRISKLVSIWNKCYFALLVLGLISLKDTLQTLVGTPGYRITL
UUG fidelity: modulators of yeast start codon fidelity, primary screen, whole organism, S. cerevisiae, single point, plate reader | S. cerevisiae UUG-firefly luciferase reporter, luminescence/redox ratio | activity score, % at 18.7 µM | 350,000 tested, 0.13% active;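 active = replicate mean at a twofold rise or more, about +100% in these data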;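 note: firefly luciferase made from a UUG start codon reports start codon fidelity; reporter light over untreated wells divided by growth signal over untreated wells; some hits fall short of that in this replicate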
MT1-MMP act inh: blockers of MT1-MMP proenzyme processing, primary screen, HT1080 RFP-PRO-GFP cells, GFP/RFP fluorescence; Matrix metalloproteinase-14 (Homo sapiens), P50281; GFP/RFP ratio fluorescence, overnight; percent of plate control window, DMSO zero; GFP/RFP ratio change, % at 20 µM; 360,000 tested, 0.061% active; AID 651647, 2012;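 active = GFP/RFP ratio change of at least 30% with cell ATP level not reduced by more than half and red fluorescence within 50% of control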; note: strong numbers were not always called active
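Assay system: HT1080 RFP-PRO-GFP cells | Dosing: 20 µM single dose, 1% DMSO | Incubation: Cells overnight before dosing, compound overnight, 37 °C, 5% CO2 | Evaluation: GFP/RFP fluorescence ratio | Control set: DMSO-only wells and HT1080 RFP-L50D-GFP cell wells as references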
PABP FP inh: PABP poly(A) RNA binding inhibitors, primary screen, biochemical, fluorescence polarization, uHTS; Polyadenylate-binding protein 1 (Homo sapiens), P11940; inhibition, % at 35 µM; 290,000 tested, 1% active; AID 2014, 2009;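 active = 50% or more with normal probe brightness, or confirmed in later tests; about a fifth of its hits are not listed in these tables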;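 note: calls also rest on retests at 20 µM and on dose response follow-up; controls were probe without protein and protein plus probe with vehicle; some compounds called inactive have numbers as strong as hits; many hits fall short of the cut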
eIF4H inh retest: second read-out of eIF4H inh, no call of its own (marks repeat the call); inhibition, %; compound at 20 µM; confirmation average;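 mean of two retest wells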
PABP FP inh retest: recorded beside PABP FP inh, whose call it bears; inhibition, %; compound at 20 µM; confirmation repeats;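 mean of two retest wells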
MT1-MMP act inh RFP: recorded beside MT1-MMP act inh, whose call it bears; RFP signal change, %; measured here: RFP expression control read;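 0 = vehicle wells; hits needed this value within 50% of zero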
Numbers without * were called inactive; i = inactive; nt = no result given. Some of the compounds tested. The share of hits here may be higher or lower than overall.

Preview:
SMILES	CSC inhib	eIF4H inh	Env fusion inh	Rce1 inh	UUG fidelity	MT1-MMP act inh	MT1-MMP act inh RFP	PABP FP inh	others
Cc1ccc(S(=O)(=O)NC(=O)Nc2ncc3c(n2)CC(c2ccco2)CC3=O)cc1 (configuration not stated)	-3	61	-15	i	nt	-2	4	-8	eIF4H inh retest=-2;PABP FP inh retest=4
O=C1/C(=C/c2ccccc2O)SC(=S)N1Cc1cccnc1	37	-6	-10	i	nt	8	-1	0
Cc1ccc2c(c1)c1cccc3c1n2CCN3CCC(N)=O	nt	1	nt	i	nt	-4	-3	22
Cc1nc2sc(C(c3ccco3)N3CCc4ccccc4C3)c(O)n2n1 (configuration not stated)	-3	nt	10	i	-4	-2	1	nt

All compounds of this part, previewed entries included:
SMILES	CSC inhib	eIF4H inh	Env fusion inh	Rce1 inh	UUG fidelity	MT1-MMP act inh	MT1-MMP act inh RFP	PABP FP inh	others
Cc1ccc(S(=O)(=O)NC(=O)Nc2ncc3c(n2)CC(c2ccco2)CC3=O)cc1 (configuration not stated)	-3	61	-15	i	nt	-2	4	-8	eIF4H inh retest=-2;PABP FP inh retest=4
O=C1/C(=C/c2ccccc2O)SC(=S)N1Cc1cccnc1	37	-6	-10	i	nt	8	-1	0
Cc1ccc2c(c1)c1cccc3c1n2CCN3CCC(N)=O	nt	1	nt	i	nt	-4	-3	22
Cc1nc2sc(C(c3ccco3)N3CCc4ccccc4C3)c(O)n2n1 (configuration not stated)	-3	nt	10	i	-4	-2	1	nt
Cc1noc(C)c1COc1cccc(C(=O)N2CCc3ccccc32)c1	-6	-2	31	i	-3	-1	-11	17
COc1ccc(CNCCS(=O)(=O)NCc2ccccc2)cc1	nt	nt	-18	nt	-21	3	5	nt
COc1ccc(CCNC(=S)NC2CCN(Cc3ccccc3)CC2)cc1OC	-9	-8	20	i	nt	2	-2	1
COc1ccccc1CN1CC(C(=O)NCc2cc(C(C)C)no2)CCC1=O (configuration not stated)	-14	-9	1	i	-3	2	4	-3
CN(C)CC(C)(C)CNC(=O)CC1C(=O)NCCN1Cc1ccc(-c2ccccc2)cc1 (configuration not stated)	-2	1	4	i	nt	-1	2	8
CN(C)S(=O)(=O)c1cccc(NC(=O)C2CCN(S(=O)(=O)c3cccs3)CC2)c1	1	nt	nt	nt	-9	-15	-3	nt
CC(C)(C)c1ccc(C(=O)Nc2ccc(CC(=O)O)cc2)o1	-12	-1	85*	i	-29	4	4	-4
O=C(Cn1c(-c2ccccn2)nc2ccccc21)NCCN1CCOCC1	5	-4	-7	i	-24	7	5	1
Cc1c(NC(=O)CN2CCN(c3ccc(F)cc3)CC2)c(=O)n(-c2ccccc2)n1C	-6	-3	7	i	nt	10	-3	12
CCOc1cccc(C(=O)NC(=S)Nc2ccc(N3CCN(CC)CC3)cc2)c1	4	-7	-19	i	-7	2	-3	-20
O=C(NCC(F)(F)F)Nc1ccccn1	10	7	27	i	1	2	3	7
CCC(=O)OCn1nnc2ccccc2c1=O	-10	-11	10	i	nt	1	4	-4
COc1ccc(Nc2ccc(C(N)=O)cc2[N+](=O)[O-])cc1	4	-2	16	i	nt	4	-8	-18
Cn1c(SCc2ccccc2)nnc1-c1ccc(O)cc1	-6	5	-7	i	-5	0	-3	6
O=C(COC(=O)c1cccnc1Cl)c1ccc(Cl)s1	-13	nt	nt	nt	-14	4	3	nt
C#CCOCCOCCOCCNc1nc(N2CCN(C(=O)[C@H](CCCCN)n3cc([C@@H](N)CO)nn3)CC2)nc(N2CCN(C(=O)[C@H](Cc3ccc(O)cc3)n3cc([C@@H](N)CC(C)C)nn3)CC2)n1	-6	24	-8	i	16	2	4	22
C=C(C)C1Cc2c(C)nn(-c3ccccc3)c2C1 (configuration not stated)	4	-3	nt	i	-15	-3	4	3
O=C(CCS(=O)(=O)c1ccc(Br)cc1)NCCc1ccc(Cl)cc1	-5	86*	-8	i	-6	-2	0	20	eIF4H inh retest=68*;PABP FP inh retest=11
COc1cccc(-c2cnc(C(O)c3cc(Cl)cc(Cl)c3)[nH]2)c1 (configuration not stated)	nt	nt	-65	nt	-2	6	-6	nt
CSCCC(NC(=O)c1c(C)oc2c1CCCC2)C(=O)O (configuration not stated)	0	3	-77	i	1	2	1	8
CCN(CC(=O)NC1CCCCCC1)S(=O)(=O)c1ccccc1	-2	-2	nt	i	nt	-1	2	-1
Cc1c(NC(=O)C23CC4CC(CC(C4)C2)C3)c(=O)n(-c2ccccc2)n1C	-17	18	-1	i	-18	-5	-5	11
O=C(CCNC(=O)c1ccc([N+](=O)[O-])cc1)Nc1cccc(S(=O)(=O)N2CCOCC2)c1	11	nt	nt	nt	2	-7	-3	nt
CCCC1=[N+](CC(=O)c2ccc(C)cc2)CCn2cccc21	nt	31	-32	i	nt	-11	3	-2
Cc1ccc(-c2nnc(N)o2)cc1	nt	1	nt	i	nt	-5	3	-7
COC(=O)c1ccc(Oc2cc(C)nc(SC)n2)cc1	59	6	0	i	-20	8	-7	-1
CCOC(=O)N1CCN(C(=O)/C(=C/c2cccc3ccccc23)NC(=O)c2ccc(OC)cc2)CC1	-1	-5	nt	i	-5	2	-1	-4
CC(C)(C)NC(=O)C(c1ccncc1)N(C(=O)Cn1nnc(-c2ccc(F)cc2)n1)c1ccc(F)cc1 (configuration not stated)	-8	-2	-6	i	nt	-11	-8	-6
COc1ccc(C(C)=O)cc1CSc1nnc(-c2ccncc2)o1	nt	-2	-6	i	0	-8	-7	-7
COc1ccc(CCC(=O)NNC(=S)NCc2ccc(F)cc2)cc1	-7	9	10	i	nt	-3	-4	-5
COc1ccc(NC2=Nc3ccccc3N[C@@]23C[C@H]2CCCC(=O)N4CC[C@@H](C3)[C@@H]24)cc1	nt	nt	-6	nt	-6	1	4	nt
Cc1ccc(N2CC(C(=O)OCC(=O)Nc3c(C)cccc3C)CC2=O)cc1 (configuration not stated)	nt	nt	18	nt	12	-3	0	nt
O=C(CCc1nnc(CCCCc2ccccc2)o1)N1CCCC(O)C1 (configuration not stated)	-13	-5	1	i	-9	1	1	0
COC(=O)C1ON2OC(C(=O)OC)C(C(=O)OC)C2C1CC(C)=O (configuration not stated)	nt	-6	nt	i	-11	6	5	10
CCCNc1c(N)c(=O)c1=O	-8	-11	13	i	-1	-2	6	5
CC1(C)CC(=O)C=C(c2ccc(Oc3ccccc3)cc2)C1	31	nt	1	nt	-11	-1	-4	nt
O=c1[nH]cnc(O)c1C(c1cccc([N+](=O)[O-])c1)c1c(O)nc[nH]c1=O	-2	-6	-24	i	0	-2	1	-1
O=C(C[C@H]1C[C@H](C(=O)N2CCCCC2)[C@@]2(CCc3ccccc3)c3[nH]c4ccc(Cl)cc4c3CCN2C1=O)NCCCn1ccnc1	nt	nt	-78	nt	-8	-8	-17	nt
CN(Cc1nc(-c2cccs2)no1)CC1COCCO1 (configuration not stated)	-12	-1	-5	i	nt	1	3	-5
Cc1ccc(S(=O)(=O)NC2CCSC2=O)cc1C (configuration not stated)	-5	nt	-1	nt	-1	-3	2	nt
CCOc1cccc2cc(C(=O)NCc3ccccc3)c(=N)oc12	-5	-11	nt	i	-18	-6	-3	-7
COc1cccc(NC(=O)C2C3C=CC4(O3)C2C(=O)N(C2CC2)C4C(=O)NC2CCCCC2C)c1 (configuration not stated)	-8	8	-23	i	-5	1	-3	5
OC1(c2ccccc2)C/C(=N\n2cnnc2)C=C1c1ccccc1 (configuration not stated)	-8	-5	nt	i	nt	7	5	-1
CCOc1ccccc1C(=O)NCC(=O)OCCCOC(=O)CNC(=O)c1ccccc1OCC	29	nt	-7	i	-13	4	2	nt
C/C(=N\NC(=O)c1ccc([N+](=O)[O-])cc1)c1c(O)cc(C)oc1=O	-27	3	22	i	nt	3	2	-3
O=C(CN(Cc1ccco1)Cc1cccs1)N1CCN(S(=O)(=O)c2cccc(F)c2)CC1	4	nt	nt	nt	-6	-3	-4	nt
COc1ccc(C(=O)N2CCN(c3ccccc3Cl)CC2)cc1S(=O)(=O)NC1CC1	19	nt	nt	nt	-4	-2	-2	nt
Cc1ncc(CO)c2c1Oc1nc(-c3ccccc3)nc(SCC(=O)N3CCCCC3)c1C2	-13	-11	29	i	-11	0	2	3
CC(=O)N1CCc2cc(S(=O)(=O)NC(Cc3ccccc3)C(=O)NCCN3CCCCC3C)ccc21 (configuration not stated)	-7	-5	-13	i	nt	1	0	-15
CC(=O)Nc1ccccc1OC(C)C(=O)N1CC(C)CC(C)C1 (configuration not stated)	-5	1	18	i	7	4	-2	4
CC(C)(C)C1CCC(=NNC(=O)CC(=O)NCc2ccccc2)CC1 (configuration not stated)	3	-1	nt	i	nt	3	3	3
Cc1cccc(C(=O)Nc2nnc(-c3ccncc3)o2)c1	8	-7	4	i	nt	1	-2	13
Cc1cccc(NC(=O)CSc2nnc(NC(=O)c3ccco3)s2)c1	1	-1	15	nt	nt	-6	0	-3
c1csc(CSc2nnc3sc4ccccc4n23)c1	1	-7	nt	i	-26	-4	-3	-5
O=C(CN1CCOCC1)Nc1cccc(C(F)(F)F)c1	-19	nt	0	i	nt	5	4	nt
CCOC(=O)N1CCC(NCCNC(=O)c2ccc(F)c(F)c2)CC1	-1	nt	7	nt	-9	0	1	nt
Remaining list, next part.
SMILES	CSC inhib	eIF4H inh	Env fusion inh	Rce1 inh	UUG fidelity	MT1-MMP act inh	MT1-MMP act inh RFP	PABP FP inh	others
COc1ccc(CNC(=O)COC(=O)C2CCC(C(C)(C)C)CC2)cc1 (configuration not stated)	-2	2	19	i	nt	-1	-2	10
COc1ccc(Nc2nc3ccccc3c(=O)s2)c(OC)c1	-4	2	nt	i	-20	3	-1	10
Cc1ccc(/C=C/C(=O)O)cc1S(=O)(=O)NCCCC(=O)O	0	5	nt	i	-8	1	3	10
N#CCCCSc1nnc(-c2ccc(Cl)cc2)n1-c1ccccc1	-5	-1	nt	i	-23	-11	-2	1
CCC1CCCCN1C(=O)COc1ccc2c(c1)OCO2 (configuration not stated)	-10	-12	11	i	1	4	4	8
COc1cc(/C=N/NC(=O)CN(Cc2ccco2)S(=O)(=O)c2ccccc2)ccc1O	-1	-9	-18	i	-4	3	-2	-4
N/C(=N\OC(=O)c1ccc([N+](=O)[O-])cc1)c1ccccn1	6	-4	13	i	nt	2	-2	-4
CC(C)CNC(=O)C1(C)CCCN1C(=O)CCc1cccs1 (configuration not stated)	nt	nt	3	nt	-19	-2	4	nt
O=C1CC(c2ccc3c(c2)OCCO3)Oc2ccc([N+](=O)[O-])cc21 (configuration not stated)	77*	2	-253	i	-30	5	-2	-4
NS(=O)(=O)c1ccc(CCNC(=O)c2ccc(CS(=O)(=O)c3ccc(Br)cc3)o2)cc1	-1	nt	-7	i	-7	-1	2	nt
COc1ccc2[nH]c3c(NCCCN4CCCC4=O)ncnc3c2c1	-9	-6	-25	i	-14	nt	nt	3
CCC(C)(C)NC(=O)C(c1ccccn1)N(C(=O)c1csnn1)c1ccc(C)cc1 (configuration not stated)	-4	-6	22	i	nt	-2	1	-13
O=C(NCCc1cn[nH]c1)C1CCC(=O)N(CCc2cccc(F)c2)C1 (configuration not stated)	-8	-3	-14	i	-26	-2	2	-6
CC(=O)Nc1ccc(NC(=O)Nc2ccccc2)cc1	2	-7	-8	i	-8	2	0	-4
